fixLJ activator: increases Burkholderia fixLJ two-component signaling; B. multivorans fixK-promoter GFP reporter, 18 h; hits give high values; z-score (concentration not given with the values); actives 0.3% (n = 29,000);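 active means replicate mean overnight rise in green fluorescent reporter signal, 3 or more SD over negative controls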;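 further: score is relative to vehicle wells of the plate; 300 nL library stock went into each well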
Active calls of the source: *.

SMILES | fixLJ activator
Cc1cccc(C)c1Nc1nn2c(=O)c3cc4c(cc3nc2s1)OCO4 | 0.22
Cc1cc(C)c(S(=O)(=O)Nc2ccc3oc4c(c3c2)C(=O)CC(C)(C)C4)cc1C | -0.38
COc1cc2nc(N3CCCC(C(C)(C)C)CC3)nc(N)c2cc1OC (stereo not drawn) | -1.1
CC(=O)[C@]1(O)Cc2c(O)c3c(c(O)c2[C@@H](O[C@H]2C[C@H](N)[C@H](O)[C@H](C)O2)C1)C(=O)c1ccccc1C3=O | -4.4
CCC(Sc1ncc(S(=O)(=O)c2ccc(Cl)cc2)c(=O)[nH]1)C(=O)Nc1ccc(OC)cc1 (stereo not drawn) | -0.07
CCOC(=O)c1cc2c(=O)n3ccccc3nc2n(C)c1=NC(=O)c1c(-c2c(F)cccc2Cl)noc1C | 2.1
Cc1c(Cl)cccc1NC(=O)Cn1cc(C(=O)c2cccs2)c2ccccc21 | 0.6
Cc1ccc(NC(=O)CN2C(=O)CC(c3ccco3)Sc3ccccc32)cc1Cl (stereo not drawn) | -0.75
O=C(Cn1c(=O)oc2cc(S(=O)(=O)NCc3ccccc3)ccc21)Nc1cccc(F)c1 | -2
O=c1cc(CNCc2nnc3ccccn23)[nH]c2c(F)cccc12 | 0.97

3 compounds already listed, ordered by number of heavy atoms, falling:
SMILES | fixLJ activator
Cc1ccc(NC(=O)CN2C(=O)CC(c3ccco3)Sc3ccccc32)cc1Cl (stereo not drawn) | -0.75
COc1cc2nc(N3CCCC(C(C)(C)C)CC3)nc(N)c2cc1OC (stereo not drawn) | -1.1
O=c1cc(CNCc2nnc3ccccn23)[nH]c2c(F)cccc12 | 0.97

(list continues)
SMILES | fixLJ activator
Cc1cc(C)c(NC(=O)CN(C)S(=O)(=O)c2ccc3c(c2)CCC(=O)N3)c(C)c1 | -0.43
O=C(Nc1ccc2nn(-c3ccccc3)nc2c1)c1ccc(-c2cccc(Cl)c2)o1 | -0.21
CCCc1cc(C(=O)NC2CCN(S(=O)(=O)c3ccccc3)CC2)n[nH]1 | 0.18
COc1cccc(NC(=O)Cn2c(=O)n(CCCC(=O)NCc3ccc4c(c3)OCO4)c(=O)c3ccccc32)c1 | -0.71
COc1ccc(-c2cc(C(F)(F)F)n3nc(C(=O)Nc4sc5c(c4C(=O)OC(C)C)CCCC5)cc3n2)cc1OC | 1.4
CCc1cccc(NC(=O)CNS(=O)(=O)c2ccc3nc(C)sc3c2)c1 | -1.9
CCc1cccc(C)c1NC(=O)CSc1nc2ccncc2[nH]1 | 1.8
O=C(c1ccnc(CC2COc3ccccc3C2)c1)N1CCOCC1 (stereo not drawn) | 1.1
CCc1ccc(S(=O)(=O)c2nnn3c2nc(N2CCC(C)CC2)c2cc(Cl)ccc23)cc1 | 1.6
CCc1ccc(Oc2c(C(F)(F)F)oc3c(CN4CCC(C)CC4)c(O)ccc3c2=O)cc1 | -1.4
CC(CNC(=O)C=Cc1cc(CO)cs1)Oc1cccnc1 (stereo not drawn) | 0.29
COc1ccc(CCNC(=O)Cc2c(C)c3c(cc(C)c4c(C)c(C)oc43)oc2=O)cc1OC | -1.4
COc1ccccc1CNC(=O)Cn1nccc1C1CCCNC1 (stereo not drawn) | 0
COc1ccc(-c2noc(CCC(=O)NCc3ccc(C)cc3)n2)cc1 | 0.57
Cc1ccc2nc(Cl)c3cc(C(=O)NCCCN(C)Cc4ccccc4)sc3c2c1 | -0.76
Cc1ccc(S(=O)(=O)Nc2cc(Cl)c3oc4c(c3c2)C(=O)CC(C)(C)C4)cc1 | -1.9
Cc1cc(CC2CN(C(=O)CCCc3cccs3)CC2O)on1 (stereo not drawn) | 1.6
O=C(Nc1ccc2nn(-c3ccccc3)nc2c1)c1cc2ccccc2o1 | -0.12
CCCC1CCc2sc(C(=O)NCc3cn4nc(C)sc4n3)cc2C1 (stereo not drawn) | -0.23
CCOc1ccccc1C1C(C(=O)N2CCCCC2)=C(C)Nc2nc3ccccc3n21 (stereo not drawn) | 0.24
Cc1c(C(=O)N(Cc2ccc(N(C)C)cc2)CC2CCCO2)oc2ccc(Cl)cc12 (stereo not drawn) | -0.12
CCS(=O)(=O)CCN(C)C(=O)NCCCc1nc2ccc(F)cc2[nH]1 | -0.66
COc1ccccc1NC(=O)Cn1c(=O)n(CC(=O)NCc2ccccc2Cl)c(=O)c2sccc21 | 0.05
COc1ccc(NC(=O)C(Cc2c[nH]c3ccccc23)NC(=O)OC(C)(C)C)cc1 (stereo not drawn) | -3.5
Cc1cc(C)n(CC2(CNC(=O)Nc3ccc(-n4cncn4)cc3)CC2)n1 | -1.4
CCc1ccc(CNC(=O)c2cnc3sc4cc(OC)ccc4n3c2=O)cc1 | -0.46
Cc1ccc(C2CN(C(=O)C3(C(N)=O)CC3)C3C4CCN(CC4)C23)cc1 (stereo not drawn) | -2.1
CCOc1ccc(-c2oc3ccc(C)cc3c(=O)c2O)cc1 | 0.41
CCc1cccc(C)c1NC(=O)C1CCN(S(=O)(=O)c2cc(Br)cc3c2N(C(C)=O)CC3)CC1 | -0.72
CN1CCN(C(=O)COc2ccccc2Cl)C2CS(=O)(=O)CC21 (stereo not drawn) | -0.13
CC(N=C(NC#N)Nc1ccncc1)C(C)(C)C (stereo not drawn) | -2
COc1ccc(CNC(=O)c2ccc3c(c2)N(Cc2ccccc2)C(=O)c2ccccc2S3=O)cc1 (stereo not drawn) | -1.6
COc1ccc(-n2c(=O)c3c4c(sc3n3c(SC(C)C)nnc23)COC(C(C)C)C4)cc1 (stereo not drawn) | -2.6
Cc1ccc(N2CC(C(=O)Nc3ccc(N(C)C)cc3)CC2=O)cc1Cl (stereo not drawn) | 0.09
CCc1cccc(NC(=O)N2CCN(C)C3CS(=O)(=O)CC32)c1 (stereo not drawn) | 0.48
O=C(Nc1ccccc1C(F)(F)F)c1noc2c1CCCC2 | -0.7
CN(Cc1cc(-c2ccccn2)no1)C(=O)C1CCCN(CC(N)=O)C1 (stereo not drawn) | 1.4
Cc1cccc(OCC(=O)NC(Cc2c[nH]c3ccccc23)C(=O)O)c1C (stereo not drawn) | -2.3
CCCOc1ccc(C(=O)Nc2ccc(NC(=O)c3ccccc3)c(C)c2)cc1 | -0.86
COC(=O)N1CCCc2cc(S(=O)(=O)NCc3ccccc3)ccc21 | -1.3

Part of the list above in another layout.
SMILES,fixLJ activator
O=C(Nc1ccccc1C(F)(F)F)c1noc2c1CCCC2,-0.7
Cc1cccc(OCC(=O)NC(Cc2c[nH]c3ccccc23)C(=O)O)c1C (stereo not drawn),-2.3

Remaining list, next part
SMILES | fixLJ activator
COc1ccc(C2Sc3ccccc3N(CCN(C)C)C(=O)C2OC(C)=O)cc1 (stereo not drawn) | -0.88
COc1ccc(-c2cc(OC(=O)c3ccc(F)cc3)c3c(C)oc(C)c3c(=O)c2)cc1OC | -0.09
COc1cccc(NC(=O)CCc2nc(-c3ccc(C(C)(C)C)cc3)no2)c1 | -1.4
Cc1cccc(NC(=O)c2c(N)sc3c2CCC(C)C3)c1 (stereo not drawn) | -1.2
Cc1nc(C)c(C(=O)N2CCCN(Cc3scnc3C)CC2)o1 | 0.91
Cn1nc(C(=O)O)c2c1CCN(C(=O)c1ccc3ccccc3n1)C2 | -0.05
CSCCC(=O)NC1CCN(Cc2csc(C)n2)CC1O (stereo not drawn) | 0.11
CCOC(=O)c1ccc(N2C(=O)c3n[nH]c(C)c3C2c2ccc(C(C)C)cc2)cc1 (stereo not drawn) | 0.98
Cc1ccc(-c2nnc(Nc3ccc(OC(F)(F)Cl)cc3)c3ccccc23)cc1S(=O)(=O)NC(C)(C)CO | -1.6
CCOCCCNC(=O)C(c1ccc(C)cc1)N(Cc1ccc2c(c1)OCO2)C(=O)c1ccc(NC(C)=O)cc1 (stereo not drawn) | -0.01

Pulled one by one from the entries so far:
SMILES | fixLJ activator
Cc1ccc(-c2nnc(Nc3ccc(OC(F)(F)Cl)cc3)c3ccccc23)cc1S(=O)(=O)NC(C)(C)CO | -1.6
Cn1nc(C(=O)O)c2c1CCN(C(=O)c1ccc3ccccc3n1)C2 | -0.05
COc1ccc(C2Sc3ccccc3N(CCN(C)C)C(=O)C2OC(C)=O)cc1 (stereo not drawn) | -0.88
COc1ccc(-c2cc(OC(=O)c3ccc(F)cc3)c3c(C)oc(C)c3c(=O)c2)cc1OC | -0.09
Cc1cccc(NC(=O)c2c(N)sc3c2CCC(C)C3)c1 (stereo not drawn) | -1.2

More records:
SMILES | fixLJ activator
Cn1c(CCNC(=O)c2cc(=O)n(-c3ccccc3)[nH]2)nc2ccccc21 | -1.2
CCCOc1cccc(C(=O)N(Cc2ccc(C)o2)C2CCS(=O)(=O)C2)c1 (stereo not drawn) | -0.11
COc1ccccc1OC1CN(C(=O)c2cc(C(F)(F)F)nn2C)C1 | 0.83
CCCCOc1ccc(C(=O)N(Cc2ccco2)Cc2ccco2)cc1 | 0.33
CCN(C(=O)c1cn(C)c(=O)c2ccccc12)c1cccc(C)c1 | 1.4
CCOc1ccccc1NC(=O)CCc1c(C)nc2c3cccnc3nn2c1C | -1.2
CCN1C(=O)c2ccccc2S(=O)(=O)c2ccc(C(=O)NCc3ccccc3OC)cc21 | -0.74
Cc1nc(CN2CCC3(CC2)CC(=O)N(Cc2ccccc2)CCO3)n[nH]1 | -1.2
CCCS(=O)(=O)c1c(S(=O)(=O)CCC)c2cc(C(C)(C)C)ccn2c1C(=O)c1ccccc1 | -0.76
CCOC(=O)c1c(NC(=O)/C=C/c2ccc(OCC)cc2)sc2c1CCC2 | -0.22
C=CCOc1cccc(CN(C)C(=O)c2cccc(NC(=O)CC)c2)c1 | -1.6
COc1ccc(C(C)C)cc1S(=O)(=O)N1CCC[C@]2(CCCC2O)C1 (stereo partly drawn) | 0.24
O=C(NCc1nc(-c2ccccc2)no1)C1CCCCn2nnnc21 (stereo not drawn) | -1.3
Cc1nc2ccc(S(=O)(=O)NC(C(=O)NCc3ccc(Cl)cc3)C(C)C)cc2s1 (stereo not drawn) | 0.01
CCN(C(=O)Cc1c(C(=O)O)[nH]c2ccccc12)c1ccc(OC)cc1 | -1.1
COC(=O)c1c(NC(=O)Nc2ccc(Cl)cc2)sc(C)c1C | 0
Cc1ccc(-c2nnc(Nc3ccc(F)cc3)c3ccccc23)cc1S(=O)(=O)NC(C)C | 0.29
COc1ccc(C(=O)COC(=O)CCCC(=O)Nc2ccc(C(C)=O)cc2)cc1 | -0.94
CCCS(=O)(=O)c1c(S(=O)(=O)CCC)c2cc(CC)ccn2c1C(=O)c1ccc(OC)cc1 | -1.2
COc1cc(Cl)ccc1Nc1ncc(C(=O)N2CCN(c3ccccc3OC)CC2)c2ccccc12 | -0.33

As entered above:
fixLJ activator, C=CCOc1cccc(CN(C)C(=O)c2cccc(NC(=O)CC)c2)c1 reads -1.6
fixLJ activator, COc1ccc(C(=O)COC(=O)CCCC(=O)Nc2ccc(C(C)=O)cc2)cc1 reads -0.94

The list goes on.
SMILES | fixLJ activator
CN(CCCOc1ccc(C(N)=O)cc1)C1C[C@H]2CC(O)C[C@H]2C1 (stereo partly drawn) | 0.13
Cc1nc2sccn2c(=O)c1S(=O)(=O)Nc1cccc(Cl)c1C | 0.68
CCc1ccc(NC(=O)Cn2c(=O)n(CCCCC(=O)NCCc3ccc(Cl)cc3)c(=O)c3ccccc32)cc1 | -1.4
COc1cccc(-c2nc(CS(=O)(=O)CC(=O)N3CCN(c4ccccc4)CC3)c(C)o2)c1 | -0.51
Cc1ccc(-n2c(=O)c3c4c(sc3n(CC(=O)C(C)(C)C)c2=O)CCCCC4)cc1C | -0.3
Cc1cc(NC2COCC2Cc2ccncc2)nc(N2CCCCC2)n1 (stereo not drawn) | 0.96
CC1(C)CC(=O)c2cc(C(=O)Nc3ccc(Br)cc3)c(=O)n(-c3ccc(Cl)cc3)c2C1 | -1.2
Cc1ccc(-c2cc3ncc4c(n3n2)-c2cc(Cl)ccc2OC4)cc1 | 0.05
O=c1c2sc3ccccc3c2n(Cc2cccc(Cl)c2)c(=O)n1Cc1ccccc1 | -0.5
Cc1ccc(Cl)cc1NC(=O)C(NS(=O)(=O)c1cccc2nsnc12)c1ccccc1 (stereo not drawn) | -1.6
O=c1oc2ccccc2cc1-c1cn2cc(Cc3ccc(F)cc3)sc2n1 | -0.07
CCCCC(CC)CNC(=O)CCCn1c(=O)[nH]c2ccsc2c1=O (stereo not drawn) | 0.43
Cc1ccc(OCCn2cc(C(=O)c3cccs3)c3ccccc32)cc1 | 1.8
Cc1nc2ccc(CC(=O)N3CC(C(=O)O)C(C4CC4)C3)cc2[nH]1 (stereo not drawn) | -1.1
Nc1nc(N)nc(-c2cc(Cl)ccc2Cl)n1 | -0.99
Cc1nc(CN2CCN(C(=O)CCn3nnnc3C)CC2)cs1 | 0.02
COc1ccc(Cl)cc1NC(=O)Cc1coc2c(C)c(C)ccc12 | -0.22
O=C(NCc1cccs1)c1nn(-c2ccccc2)nc1CO | -1.3
COc1cc2nc(Nc3ccc(C)c(C)c3)nc(N)c2cc1OC | -4.7
C=CCOc1ccccc1CN1CCN(c2ncc(C#N)c(N)n2)CC1 | 0.49
CCOC(=O)CSc1nc2sc3c(c2c(=O)n1-c1ccccc1)CC(C(C)C)OC3 (stereo not drawn) | 1.3
CN1CCN(CCC2CCCCN2C(=O)c2cnc[nH]2)CC1 (stereo not drawn) | 0.21
CCCN1Cc2cccc(C(=O)Nc3cc(Cl)ccc3C)c2C1=O | -0.56
CSc1nn(Cc2cccc(Cl)c2)c(N(C(C)=O)C(C)=O)c1S(=O)(=O)c1ccccc1 | -1.5
O=S1(=O)CCC(N(Cc2ccccc2)Cc2nnc(-c3cccnc3)o2)C1 (stereo not drawn) | -2.8
CN1CCC[C@]2(CO)CCN(c3cc(C4CC4)ncn3)C[C@@H]12 | -1.6
Cc1nc2sccn2c(=O)c1S(=O)(=O)Nc1ccc(N2CCOCC2)c(Cl)c1 | -1.1
COc1ccc(N2CCN(Cc3nc4c(c(=O)[nH]c(=O)n4C)n3Cc3ccccc3F)CC2)cc1 | -0.31
CCn1c(CN2CC(Oc3cccc(C)c3)C2)nnc1C1CC(N)C1 (stereo not drawn) | 1.7

Screening data deposited in PubChem by ICCB-Longwood Screening Facility, Harvard Medical School.

Some of the compounds tested; the hit share may differ from the screen's.
